MT1-MMP act inh: blockers of MT1-MMP proenzyme processing, primary screen, HT1080 RFP-PRO-GFP cells, GFP/RFP fluorescence; Matrix metalloproteinase-14 (Homo sapiens), P50281; GFP/RFP ratio fluorescence, overnight; percent of plate control window, DMSO zero; GFP/RFP ratio change, % at 20 µM; 0.061% of 360,000 active;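 active = GFP/RFP ratio change of at least 30% with cell ATP level not reduced by more than half and red fluorescence within 50% of control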; also: strong numbers were not always called active
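Material – HT1080 RFP-PRO-GFP cells · Control set – DMSO wells and RFP-L50D-GFP cells · Incubation – overnight cell settling, then overnight compound exposure, 37 °C, 5% CO2 · Compound dosing – single-point 20 µM compound, 1% DMSO · Read-out – GFP/RFP fluorescence ratio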
eIF4H FP inh: human eIF4H binding inhibitors, primary screen, translation initiation inhibitor project, biochemical, uHTS, fluorescence polarization; inhibition, % at 35 µM; Eukaryotic translation initiation factor 4H (Homo sapiens), Q15056; eIF4H fluorescence polarization binding assay; 0.94% of 290,000 active; AID 2012, 2009;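 active = 50% or more with normal probe brightness, or confirmed in later tests; inconclusive = above 50% with abnormal brightness, or retests that disagree; inactive = below 50% or failed in later tests; about a fifth of its hits are not listed in these tables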;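 also: calls also rest on retests at 20 µM and on dose response follow-up; 0% = protein and probe with vehicle and 100% = probe without protein; strong numbers were not always called active; many hits fall short of the cut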
Rce1 inh: yeast Rce1p protease inhibitors, primary screen, biochemical, fluorescence, cell-free homogeneous. CAAX prenyl protease 2 (Saccharomyces cerevisiae (strain ATCC 204508 / S288c)), Q03530. yeast membranes, quenched prenylated peptide cleavage fluorescence. calls only. 0.27% of 290,000 active;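 active = fall in fluorescence gain of 50% or more versus controls, with final raw signal at or below 3038400; inconclusive = same 50% fall but final raw signal above 3038400; inactive = fall in fluorescence gain under 50%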;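 also: plate controls were neutral control wells for no effect and wells lacking membranes for full effect; tested at 10 µM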
Target sequence (Q03530 whole entry, looked up): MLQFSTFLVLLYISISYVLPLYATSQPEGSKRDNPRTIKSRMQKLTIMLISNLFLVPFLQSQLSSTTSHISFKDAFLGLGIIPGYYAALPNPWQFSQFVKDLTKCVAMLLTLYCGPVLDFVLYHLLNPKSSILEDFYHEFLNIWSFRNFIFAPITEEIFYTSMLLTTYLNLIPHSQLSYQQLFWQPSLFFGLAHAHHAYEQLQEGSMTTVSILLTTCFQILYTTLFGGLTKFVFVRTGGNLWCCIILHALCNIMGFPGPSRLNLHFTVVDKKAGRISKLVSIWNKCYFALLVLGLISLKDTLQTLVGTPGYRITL
Yeast UUG start: modulators of yeast start codon fidelity, primary screen, whole organism, S. cerevisiae, single point, plate reader; activity score, % at 18.7 µM; S. cerevisiae UUG-firefly luciferase reporter, luminescence/redox ratio; AID 602363, 2012; 0.13% of 350,000 active;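 active = replicate mean at a twofold rise or more, about +100% in these data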;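 also: firefly luciferase made from a UUG start codon reports start codon fidelity; reporter light over untreated wells divided by growth signal over untreated wells; some hits fall short of that in this replicate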
Env fusion inh: inhibitors of HIV-1 Env-driven cell-cell fusion, primary screen, HeLa-JRFL effector, CEM21 target cells, luciferase; AID 651610, 2012; 1.1% of 360,000 active; inhibition, % at 12.3 µM;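 active = mean replicate inhibition score of at least 50 and every replicate individually at or above 50; inconclusive = only one of the two criteria met; inactive = mean below 50 and not all replicates reaching 50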;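 also: 0% = plate neutral controls and 100% = maraviroc near 300 nM; one replicate is shown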
CSC inhib: cancer stem cell viability inhibitors, primary screen, luminescence. cancer stem cell-like cells viability. inhibition, % at 7.5 µM. 1.1% of 300,000 active. AID 2717, 2010;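 active = mean at 75% or more and at least half the replicates too; inconclusive = mean and replicates disagree; tested in HMLE shEcad cells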;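 also: 0% = median of negative and 100% = median of positive control wells; the first replicate is given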
PABP polyA inh: PABP poly(A) RNA binding inhibitors, primary screen, biochemical, fluorescence polarization, uHTS. Polyadenylate-binding protein 1 (Homo sapiens), P11940. inhibition, % at 35 µM. 1% of 290,000 active. AID 2014, 2009;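 active = 50% or more with normal probe brightness, or confirmed in later tests; inconclusive = above 50% with abnormal brightness, or retests that disagree; inactive = below 50% or failed in later tests; about a fifth of its hits are not listed in these tables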;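 also: calls also rest on retests at 20 µM and on dose response follow-up; controls were probe without protein and protein plus probe with vehicle; some compounds called inactive have numbers as strong as hits; many hits fall short of the cut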
Target sequence (P11940 whole entry, looked up): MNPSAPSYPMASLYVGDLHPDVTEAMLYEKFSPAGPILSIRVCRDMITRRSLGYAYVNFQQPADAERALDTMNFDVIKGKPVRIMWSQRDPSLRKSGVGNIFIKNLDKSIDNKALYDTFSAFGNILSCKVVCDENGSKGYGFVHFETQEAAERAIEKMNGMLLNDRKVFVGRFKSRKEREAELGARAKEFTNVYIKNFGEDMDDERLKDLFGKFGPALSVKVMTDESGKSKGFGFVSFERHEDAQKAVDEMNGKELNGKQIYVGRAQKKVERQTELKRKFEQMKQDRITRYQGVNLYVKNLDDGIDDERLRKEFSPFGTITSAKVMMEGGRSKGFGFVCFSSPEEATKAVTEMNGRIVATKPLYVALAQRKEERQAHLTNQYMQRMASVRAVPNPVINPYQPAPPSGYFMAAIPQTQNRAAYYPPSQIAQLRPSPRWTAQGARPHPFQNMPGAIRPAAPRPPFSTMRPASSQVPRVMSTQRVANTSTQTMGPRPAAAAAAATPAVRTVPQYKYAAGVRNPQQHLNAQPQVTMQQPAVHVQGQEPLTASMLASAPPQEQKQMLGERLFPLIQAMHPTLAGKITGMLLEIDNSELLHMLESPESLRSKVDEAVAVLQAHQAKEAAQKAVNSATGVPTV
PABP polyA inh retest: also measured in PABP polyA inh; calls as there; inhibition, %; compound at 20 µM; confirmation repeats;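 mean of two retest wells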
MT1-MMP act inh RFP: second read-out of MT1-MMP act inh, no call of its own (marks repeat the call); RFP signal change, %; measured here: RFP expression control read;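 0 = vehicle wells; hits needed this value within 50% of zero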
* marks the source's active call; other numbers are inactive results; i = inactive; ? = inconclusive; · = not tested or not shown; + = active, no number. The list is partial. The share of hits here may be higher or lower than overall.

SMILES	MT1-MMP act inh	MT1-MMP act inh RFP	eIF4H FP inh	Rce1 inh	Yeast UUG start	Env fusion inh	CSC inhib	PABP polyA inh	others
CCC(C(=O)NCCc1ccco1)n1nc(C)c2c(C)n(-c3ccccc3)nc2c1=O (configuration not stated)	1	-2	-11	i	-3	-3	-26	-2
COc1ccc(NC(=O)CNCc2ccc(Cl)cc2)cc1S(=O)(=O)N1CCOCC1	0	0	·	·	1	·	-4	·
CCCCCn1ccc(=N)cc1	7	-6	·	i	-21	·	6	·
Cc1c(C(=O)Nc2ccc3c(c2)OCO3)sc2nc(-c3ccccc3)cn12	5	-6	1	i	-16	10	9	2
COCCN1C(=O)CS/C1=C(/C#N)C(=O)NCc1ccco1	18	27	?	i	·	-8	-12	-3	PABP polyA inh retest=22
C=CCC[C@H](Cc1ccc(F)cc1)C(=O)OC[C@@H](Cc1c[nH]c2ccccc12)NC(=O)[C@@H](CC=C)CC(=O)N[C@H](CO)Cc1ccccc1	7	-2	·	·	7	-288	-7	·
CCOC(=O)/C(C#N)=C/N1CCOCC1	-2	2	-8	i	-22	5	-5	0
Cn1c(=O)c2c(nc(CN3CCN(CCO)CC3)n2Cc2ccccc2Cl)n(C)c1=O	-8	-1	12	i	-16	·	-11	-11
Cc1ccc(CNC(=O)CCS(=O)(=O)c2cccc3nonc23)cc1	6	8	-1	i	-8	-3	2	8
O=C(O)c1ccc(-c2ccc(O)c(F)c2)cc1	-4	3	-11	+	2	?	7	1
Cc1c(C(=O)O)cccc1-n1c(C)cc(/C=C(/C#N)C(=O)NCc2ccccc2)c1C	2	-6	15	i	·	-6	0	5
Cc1ccc(S(=O)(=O)NCc2cccnc2)cc1C	2	3	3	i	-14	3	-5	4
c1ccc2nc3c(nc2c1)[nH]c1ccccc13	-2	-6	12	i	-14	i	-1	10
Cc1cccc(NS(=O)(=O)c2cccc3nsnc23)c1	3	6	-11	i	·	·	-9	6
Cc1nc2ccccc2c(=O)n1/N=C/c1ccc(N(C)C)cc1	2	1	-14	i	-14	-35	-14	2
CCNc1c([N+](=O)[O-])c(=O)oc2ccccc12	1	6	-9	i	·	-11	-14	-4
O=C(NCC1CCCO1)c1cn(Cc2ccccc2)nc1-c1ccc(Cl)cc1 (configuration not stated)	7	3	·	·	-8	·	-18	·
O=C(CCCOc1cccc(Br)c1)NCCOc1ccccc1	1	2	-3	i	-10	-5	6	5
CN1CCN(c2ccc(S(=O)(=O)N3CCOCC3)cc2)CC1	-1	0	1	i	-20	-8	-9	-6
CSc1cccc(NC(=O)c2c(Cl)cnn2C)c1	-1	0	1	i	-15	·	-2	-8
COC(=O)CSc1snnc1-c1ccc(Cl)c(Cl)c1	1	4	-9	i	-22	-28	10	1
COc1ccc(Br)c(C(=O)N2CCCC2(C)C(=O)NCC(C)C)c1 (configuration not stated)	7	5	·	·	-13	-9	·	·
CCC/C(O)=C1\C(=O)CC(C)(C)CC1=NCc1ccccc1	-2	-5	-7	i	·	38	6	9
CC12CCC(=O)N1C(C(=O)OCC(=O)Nc1sccc1C#N)CS2 (configuration not stated)	2	10	64*	i	-15	-74	-10	99*
Cc1nn(Cc2ccccc2)c(C)c1NC(=O)CSc1nnc(-c2cc(Cl)ccc2O)n1C	2	-6	-14	i	-8	·	-3	-5
COC(=O)c1cc(C)sc1NC(=O)C1CC(=O)NN1Cc1ccccc1 (configuration not stated)	-2	1	-4	i	·	-6	-4	-7
CCOC(=O)CSc1nc(N)c(C#N)c(-c2ccc(OCC)cc2)c1C#N	11	3	-9	i	-22	·	-8	-7
CCn1c(SCC(=O)Nc2ccc(C(C)=O)cc2)nnc1C1CC1	-6	-2	-2	i	-2	5	-23	-1
Cn1c(=O)n(CCc2ccccc2)c2ccccc21	1	0	-2	i	3	-21	-10	5
COC(=O)C1CC(Cl)CN1c1ncc(C(F)(F)F)cc1Cl (configuration not stated)	0	4	-5	i	·	-66	-5	2
O=C1CSC(=S)N1N=C1CCCCCC1	0	0	11	·	·	·	-5	15
COc1cc(NC(=S)N2CCN(c3ccccn3)CC2)cc(OC)c1	0	0	-10	i	-23	-5	-25	4
CN1CCN(/C=N/c2c(C#N)cnn2-c2ccccc2)CC1	-5	1	-6	·	-4	-24	-5	-4
CN(C)S(=O)(=O)c1cccc(COc2ncnc3c(Cl)cc(Cl)cc23)c1	2	-4	-1	i	-6	-4	-3	0
COCc1ccc([C@@H]2C[C@H]3CN(Cc4cccc(Cl)c4)C(=O)[C@]34CCCN24)o1	-3	-1	2	i	-11	-2	-1	13
COc1cc(/C=N/NC(=O)c2cccnc2)cc(Br)c1O	6	4	5	i	4	11	-13	23
COc1ccc2nc(C)cc(Nc3ccccc3OC)c2c1	0	8	·	·	-5	2	·	·
Cn1c(CNC(=O)CNC(=O)Cc2ccc(F)cc2)cc(=O)n(C)c1=O	0	2	-14	i	-17	-11	-20	-8
COc1ccc(C(=O)NC(C(=O)NCc2ccccc2OC)C(C)C)cc1 (configuration not stated)	-5	-5	-6	i	·	-3	-9	-4
CCOC(=O)Cc1csc(NC(=O)c2ccc(C)cc2)n1	-2	-5	8	i	·	1	5	4
O=C(CCc1ccccc1)NNC(=O)Nc1ccc(Cl)cc1	2	0	0	i	11	18	·	3
CCN(CC)c1c2c(c(C#N)c3nc4ccccc4n13)CCC2	-8	-3	12	i	-4	-4	0	-1
CC[C@@]12C(=O)N(c3ccc(C)cc3)C(=O)N1[C@H](c1cccc(C)c1)[C@@H]1C(=O)N(Cc3ccccc3)C(=O)[C@@H]12	-6	-3	·	i	-10	5	-16	·
COC(=O)C1(C)NCCc2c1[nH]c1ccccc21 (configuration not stated)	2	0	·	i	-8	·	-8	·
COC(=O)C1=C(C)N(Cc2ccccc2)C(=NCCc2cccnc2)N[C@H]1c1ccccc1	-3	2	-3	i	-9	·	-5	43
COc1cc(NC(=S)Nc2ccccn2)c(OC)cc1Cl	-1	0	10	i	·	9	9	-12
Cc1cc(C)cc(NC(=O)c2ccc3c(c2)CCN3S(C)(=O)=O)c1	8	3	-3	i	-6	10	-3	0
CCOC(=O)N1CCC(NC(=O)CS(=O)(=O)Cc2nc(-c3cccc(OC)c3)oc2C)CC1	1	-2	15	i	-6	-53	5	6
COc1c(NC(C)=O)c2c(c([N+](=O)[O-])c1OC)C(=O)OC2	1	-3	·	·	-12	1	·	·
COc1ccc(CCN(C)C(=O)CN2C(=O)c3ccccc3S2(=O)=O)cc1OC	1	2	-1	i	-15	2	-11	26
O=[N+]([O-])c1ccc(COc2cccc(CNc3ccc(Br)cc3)c2)cc1	-3	-12	-7	i	·	26	13	-7
Cc1ccc(C2CC2c2n[nH]c(=S)n2-c2cccc(Cl)c2)cc1 (configuration not stated)	1	2	4	i	·	-18	22	6
c1ccc2c(c1)ncn2CCC1CCCCC1	-7	-16	-8	·	-25	45	22	-12
CCn1nc(C)c(NC(=O)c2cc(Br)ccc2Cl)c1C	1	2	-9	i	·	·	-8	-2
CCCCc1nc(NCCN2CCOCC2)c(C#N)c2c1COC(C)(C)C2	4	9	-1	i	-2	-4	3	-2
CCN(CC(=O)Nc1ccc(OC)cc1)C(=O)c1ccc2c(c1)NC(=O)CS2	-1	-2	·	·	1	4	·	·
CCN1C(=O)CSc2ccc(C(=O)NCc3ccccc3OC)cc21	7	0	1	i	-9	·	-4	11
CC(C)c1nnc(NC(=O)C2CCCN(C(=O)Nc3ccc(F)cc3)C2)s1 (configuration not stated)	-1	1	1	i	3	-12	·	0
Cc1nc2ccc(NC(=O)N3CCSCC3)cc2s1	5	-3	-6	i	-18	-14	-4	0
CC(=NCc1cccc(Cl)c1)c1nc(-c2ccco2)oc1O	3	-2	0	i	-8	1	100*	2

Overlap with the part before: 5 compounds, then new ones.
SMILES	MT1-MMP act inh	MT1-MMP act inh RFP	eIF4H FP inh	Rce1 inh	Yeast UUG start	Env fusion inh	CSC inhib	PABP polyA inh	others
CCN(CC(=O)Nc1ccc(OC)cc1)C(=O)c1ccc2c(c1)NC(=O)CS2	-1	-2	·	·	1	4	·	·
CCN1C(=O)CSc2ccc(C(=O)NCc3ccccc3OC)cc21	7	0	1	i	-9	·	-4	11
CC(C)c1nnc(NC(=O)C2CCCN(C(=O)Nc3ccc(F)cc3)C2)s1 (configuration not stated)	-1	1	1	i	3	-12	·	0
Cc1nc2ccc(NC(=O)N3CCSCC3)cc2s1	5	-3	-6	i	-18	-14	-4	0
CC(=NCc1cccc(Cl)c1)c1nc(-c2ccco2)oc1O	3	-2	0	i	-8	1	100*	2
CS(=O)(=O)N(CC(=O)N1CCc2ccccc2C1)Cc1ccc(Cl)cc1	0	0	3	i	1	?	-16	-6
CCN1CCN(/C=N/c2nc3c(s2)CCCC3)CC1	2	6	3	i	-74	·	·	-1
COc1cc(-c2n[nH]c(=S)n2-c2cccc(C(F)(F)F)c2)cc(OC)c1OC	7	4	2	i	-19	-14	0	7
N#Cc1ccc(C(=O)NNC(=O)c2ccncc2)cc1	0	2	-2	i	-1	5	1	-2
CC(OC(=O)C1CC2CCCC(C1)C2=O)C(=O)Nc1cccc([N+](=O)[O-])c1 (configuration not stated)	3	-3	·	·	-10	·	7	·
COc1cccc(CN2CC(C(=O)N3CCCO3)CCC2=O)c1 (configuration not stated)	1	1	-6	i	-27	0	-3	16
CCN1C(=O)C(O)(CC(=O)c2c(C)coc2C)c2ccccc21 (configuration not stated)	4	4	-6	i	·	-7	1	-4
CCOC(=O)CC(=O)Nc1ccc(C(=O)OCC)cc1	-8	0	-16	i	-1	·	-5	11
CCC(=O)NC(=S)Nc1ccc(NC(=O)c2ccco2)cc1	1	-1	4	i	·	9	-3	-5
O=C(NCCN1CCCCC1)Nc1cccc(Cl)c1Cl	·	·	0	i	5	-15	·	-10
CC1CCN(C(=O)c2ccc(NC(=O)C3CCCO3)cc2)CC1 (configuration not stated)	-3	-8	-4	i	·	-41	-14	-10
Clc1ccccc1C1=Nn2c(nnc2-c2ccco2)SC1	-11	-6	-6	i	-4	10	-13	-3
COc1ccc(Cl)cc1C(=O)N1CCN(c2ccccn2)CC1	5	4	-2	i	-25	·	-13	-6
Cc1nc2sc(C(c3ccccc3)N3CCN(C)CC3)c(O)n2n1 (configuration not stated)	3	6	1	i	-17	-11	19	-1
Cc1cc(OCCOc2cccc3cccnc23)cc(C)c1Cl	-1	-3	-1	i	-24	·	2	-4
COc1cccc(NC(=O)COC(=O)c2ccccc2SCC(=O)N2CCCC2)c1	3	-4	·	i	-10	3	-20	·
Oc1ccc(C[C@H]2CNCCN2CC2(c3ccccc3)CC2)cc1	-9	0	·	i	-3	22	22	·
c1ccc(CCn2nnnc2C(c2cccs2)N2CCOCC2)cc1 (configuration not stated)	-7	0	-3	i	-17	·	2	-3
Cc1ccc(C)c(C2=CSC3=NS(=O)(=O)CCN23)c1	3	-1	-16	·	-5	5	4	-16
